Source: PubChem BioAssay
KCNQ2 enhance – enhances the rat KCNQ2 potassium channel | O88943 | CHO-K1 KCNQ2, FluxOR thallium flux fluorescence; stronger effect = higher value | B-score at 10 µM | hit rate 0.54% among 310,000 | AID 2239;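 active = fluorescence ratio B-score at least 3 SD of library B-scores, with initial fluorescence B-score within 3 SD, cut at about 5.3 in these data; same plate scores as AID 2156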;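 also: B-score of peak minus minimum over baseline fluorescence ratio after K+ and Tl+ stimulus; positive B-score means potentiation of KCNQ2 with more thallium influx and brighter signal; only the inactives scoring about 0 or higher are listed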
Target sequence (O88943 whole entry, looked up): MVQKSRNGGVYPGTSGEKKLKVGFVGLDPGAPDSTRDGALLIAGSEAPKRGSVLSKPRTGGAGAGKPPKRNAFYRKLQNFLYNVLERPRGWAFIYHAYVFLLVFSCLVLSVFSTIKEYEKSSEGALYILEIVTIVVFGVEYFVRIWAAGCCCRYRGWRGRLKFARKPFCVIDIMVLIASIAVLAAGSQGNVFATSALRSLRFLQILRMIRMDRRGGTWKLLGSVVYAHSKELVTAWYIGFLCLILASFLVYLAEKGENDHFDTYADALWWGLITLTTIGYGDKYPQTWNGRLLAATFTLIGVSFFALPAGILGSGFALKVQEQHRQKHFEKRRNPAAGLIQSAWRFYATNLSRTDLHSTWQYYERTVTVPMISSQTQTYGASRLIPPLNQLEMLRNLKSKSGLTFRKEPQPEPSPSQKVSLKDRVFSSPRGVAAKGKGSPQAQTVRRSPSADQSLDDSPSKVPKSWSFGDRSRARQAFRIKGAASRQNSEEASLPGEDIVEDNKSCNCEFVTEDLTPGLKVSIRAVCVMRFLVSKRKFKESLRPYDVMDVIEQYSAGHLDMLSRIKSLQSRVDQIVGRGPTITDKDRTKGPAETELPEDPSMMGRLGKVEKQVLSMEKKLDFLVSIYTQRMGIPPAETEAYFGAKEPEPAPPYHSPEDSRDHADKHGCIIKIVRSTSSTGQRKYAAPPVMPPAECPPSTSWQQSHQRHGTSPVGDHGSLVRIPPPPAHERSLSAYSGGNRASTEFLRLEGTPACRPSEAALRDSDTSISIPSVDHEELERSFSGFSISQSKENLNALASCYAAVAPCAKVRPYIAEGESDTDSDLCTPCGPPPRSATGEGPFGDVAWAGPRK
KCNQ2 enhance baseline – also measured in KCNQ2 enhance; calls as there; B-score; compound at 10 µM; measured here: initial fluorescence intensity artifact check;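 brightness before thallium and not channel activity; 0 = typical well and far values either way flag optical interference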
The depositor's hits bear a star. Only part of the results is shown; the hit share may differ from the screen's.

COc1ccc(CCCc2nnc(SCC(=O)Nc3cccc(C)c3)o2)cc1 was read as KCNQ2 enhance 0.14 and KCNQ2 enhance baseline -0.47.
For Cn1c(N)c(C(=O)/C=C/c2ccccc2)c(=O)[nH]c1=O the results were KCNQ2 enhance 2.3 and KCNQ2 enhance baseline -0.15.
`Cc1cc(C(=O)OC2CCOC2=O)c2ccccc2n1` (centres undefined) gave KCNQ2 enhance 1.3 and KCNQ2 enhance baseline 0.25.
Screening FC(F)(F)C(Oc1nc(Nc2ccc(Cl)cc2)nc(N2CCOCC2)n1)C(F)(F)F returned KCNQ2 enhance 1 and KCNQ2 enhance baseline -0.36.
Screening Cc1ccc(S(=O)(=O)N(C)CC(=O)Nc2nnc(CC(C)C)s2)cc1 returned KCNQ2 enhance 1.8 and KCNQ2 enhance baseline -0.13.
CCCCCCN=CC1=C(O)C(C(=O)OC)C(C)(C)CC1=O (centres undefined) was read as KCNQ2 enhance 0.63 and KCNQ2 enhance baseline 0.
`O=C(NCc1ccc(Cl)cc1)Nc1ccc(F)cc1` gave KCNQ2 enhance 2.2 and KCNQ2 enhance baseline -4.1.
Screening C/C(=N\Nc1ccc(C(=O)O)cc1)c1ccc(S(=O)(=O)NCc2ccco2)cc1 returned KCNQ2 enhance 2.2 and KCNQ2 enhance baseline -0.27.
`COc1ccc(CN(C(=O)CNC(=O)c2ccco2)C(C(=O)NCC2CCCO2)c2ccccc2)cc1` (centres undefined) gave KCNQ2 enhance 1.5 and KCNQ2 enhance baseline -1.2.
Screening C/C(Cc1ccccc1)=N\NC(=O)CNC(=O)/C=C\c1ccccc1 returned KCNQ2 enhance 0.04 and KCNQ2 enhance baseline 0.22.
`O=C(NCCN1CCOCC1)c1cc(-c2ccc(Cl)cc2Cl)on1` gave KCNQ2 enhance 0.63 and KCNQ2 enhance baseline 3.4.
Screening O=C(Nc1ccccc1)c1ccc2ccccc2n1 returned KCNQ2 enhance 0.93 and KCNQ2 enhance baseline 0.1.
CCN(CC)c1ccc(CNC23CN4CN(CN(C4)C2)C3)cc1 was read as KCNQ2 enhance 0.04 and KCNQ2 enhance baseline 1.2.
`COc1ccc(OC(=O)/C=C/c2ccc([N+](=O)[O-])cc2)cc1` gave KCNQ2 enhance 0.26 and KCNQ2 enhance baseline -0.12.
For Cc1noc(C)c1C(=O)OCC(=O)NC(=O)NC12CC3CC(CC(C3)C1)C2 the results were KCNQ2 enhance 0.34 and KCNQ2 enhance baseline 0.14.
O=[N+]([O-])c1ccccc1NC1CCN(Cc2ccccc2)CC1 was read as KCNQ2 enhance 0.74 and KCNQ2 enhance baseline 0.61.
For Cc1cc(NC(=O)CN2CCN(C/C=C/c3ccccc3)CC2)c([N+](=O)[O-])cc1C the results were KCNQ2 enhance 0.08 and KCNQ2 enhance baseline 1.8.
`O=C1c2ccccc2C(=O)C12OC2c1ccc(Cl)cc1` (centres undefined) gave KCNQ2 enhance 0.43 and KCNQ2 enhance baseline -0.7.
CCOc1cc(N2CCOCC2)c(OCC)cc1NC(=O)CN1CCc2ccccc2C1 was read as KCNQ2 enhance 2.6 and KCNQ2 enhance baseline -0.05.
`O=S(=O)(Nc1cccc(Oc2ccc(Cl)cc2)n1)c1ccc(F)cc1` gave KCNQ2 enhance 1.4 and KCNQ2 enhance baseline -1.2.
`O=C(Nc1cccc(Cl)c1)N1CCCCCC1` gave KCNQ2 enhance 0.07 and KCNQ2 enhance baseline 0.4.
Screening COc1ccccc1C(=O)N1CCN(S(=O)(=O)c2ccccc2)CC1 returned KCNQ2 enhance 0.18 and KCNQ2 enhance baseline -0.11.
`CCc1ccc2oc(-c3ccc(OC)cc3)cc(=Nc3cccc(C(=O)O)c3)c2c1` gave KCNQ2 enhance 0.01 and KCNQ2 enhance baseline -1.4.
`c1ccc2c(c1)ncn2-c1ncnc2sc3c(c12)CCCC3` gave KCNQ2 enhance 0.16 and KCNQ2 enhance baseline -0.87.
For CCCOCC1CC2(CC(C)(c3csc(N)n3)OC2=O)C(=O)O1 (centres undefined) the results were KCNQ2 enhance 0.06 and KCNQ2 enhance baseline -1.3.
Screening Cc1ccc(-c2cc(-c3n[nH]c(=S)o3)c3ccccc3n2)cc1 returned KCNQ2 enhance 14* and KCNQ2 enhance baseline -0.85*.
`Cc1cc(=O)[nH]c(/N=C(\N)Nc2ccc3c(c2)OCCO3)n1` gave KCNQ2 enhance 0.82 and KCNQ2 enhance baseline -1.3.
Screening O=C(NCc1ccccc1F)C1CCCN(S(=O)(=O)N2CCOCC2)C1 (centres undefined) returned KCNQ2 enhance 2.2 and KCNQ2 enhance baseline 0.45.
For CC(C)NC(=O)NS(=O)(=O)c1cnccc1N1CCCCC1 the results were KCNQ2 enhance 0.26 and KCNQ2 enhance baseline 0.07.
`O=c1oc2ccccc2c(N2CCCCC2)c1CN1CCCCC1` gave KCNQ2 enhance 0.3 and KCNQ2 enhance baseline -0.25.
`O=C(NCCc1ccco1)c1nn(Cc2ccccc2)c(=O)c2ccccc12` gave KCNQ2 enhance 0.49 and KCNQ2 enhance baseline -0.01.
For O=C(c1ccccc1Br)N1CCN(c2ccccc2)CC1 the results were KCNQ2 enhance 0.6 and KCNQ2 enhance baseline 1.3.
For COC(=O)CNC(=O)CCC(=O)N1CCN(C(c2ccccc2)c2ccccc2)CC1 the results were KCNQ2 enhance 1.9 and KCNQ2 enhance baseline -1.9.
Screening CC1CCCN(C(=O)CSc2nnc(-c3cccs3)o2)C1 (centres undefined) returned KCNQ2 enhance 0.61 and KCNQ2 enhance baseline 0.
`COc1ccc(-c2nnc(-c3ccccc3)o2)cc1OC` gave KCNQ2 enhance 0.18 and KCNQ2 enhance baseline -1.8.
Screening CCOc1ccc(-n2cc(C(=O)NCc3ccco3)c3cc(OC)c(OC)cc3c2=O)cc1 returned KCNQ2 enhance 0.08 and KCNQ2 enhance baseline -1.4.
COc1ccc(CC(=O)Nn2c(-c3ccccc3)nc3ccccc3c2=O)cc1 was read as KCNQ2 enhance 9.9* and KCNQ2 enhance baseline -0.11*.
For COC(=O)C1=C(C(=O)OC)[C@@H]2N(C)c3ccccc3[C@@]23C[C@@H](CO)N(C(=O)c2cccs2)C3=N1 the results were KCNQ2 enhance 1.1 and KCNQ2 enhance baseline 0.05.
For CC(=O)Nc1ccc2sc(C)nc2c1 the results were KCNQ2 enhance 0.83 and KCNQ2 enhance baseline 1.4.
For O=C(CN1CCN(C/C=C/c2ccccc2)CC1)NC(=O)NC1CCCCC1 the results were KCNQ2 enhance 0.51 and KCNQ2 enhance baseline 0.87.

Arranged by number of heavy atoms (low to high): some entries from above.
For CC(=O)Nc1ccc2sc(C)nc2c1 the results were KCNQ2 enhance 0.83 and KCNQ2 enhance baseline 1.4.
Screening CC1CCCN(C(=O)CSc2nnc(-c3cccs3)o2)C1 (centres undefined) returned KCNQ2 enhance 0.61 and KCNQ2 enhance baseline 0.
`c1ccc2c(c1)ncn2-c1ncnc2sc3c(c12)CCCC3` gave KCNQ2 enhance 0.16 and KCNQ2 enhance baseline -0.87.
`O=c1oc2ccccc2c(N2CCCCC2)c1CN1CCCCC1` gave KCNQ2 enhance 0.3 and KCNQ2 enhance baseline -0.25.
Screening COc1ccccc1C(=O)N1CCN(S(=O)(=O)c2ccccc2)CC1 returned KCNQ2 enhance 0.18 and KCNQ2 enhance baseline -0.11.
`O=C(NCCc1ccco1)c1nn(Cc2ccccc2)c(=O)c2ccccc12` gave KCNQ2 enhance 0.49 and KCNQ2 enhance baseline -0.01.
For COC(=O)CNC(=O)CCC(=O)N1CCN(C(c2ccccc2)c2ccccc2)CC1 the results were KCNQ2 enhance 1.9 and KCNQ2 enhance baseline -1.9.
Screening CCOc1ccc(-n2cc(C(=O)NCc3ccco3)c3cc(OC)c(OC)cc3c2=O)cc1 returned KCNQ2 enhance 0.08 and KCNQ2 enhance baseline -1.4.
For COC(=O)C1=C(C(=O)OC)[C@@H]2N(C)c3ccccc3[C@@]23C[C@@H](CO)N(C(=O)c2cccs2)C3=N1 the results were KCNQ2 enhance 1.1 and KCNQ2 enhance baseline 0.05.

The list goes on.
For Cc1ccc(C)c(Nc2nc3nonc3nc2N2CCOCC2)c1 the results were KCNQ2 enhance 0.05 and KCNQ2 enhance baseline 0.07.
For COc1ccc(-c2cc3c(=O)n(CC(=O)NCc4ccccc4OC)ncn3n2)cc1 the results were KCNQ2 enhance 1.2 and KCNQ2 enhance baseline 1.1.
For Cn1nc([N+](=O)[O-])nc1Sc1ccc(Cl)cc1 the results were KCNQ2 enhance 1.5 and KCNQ2 enhance baseline -0.02.
`O=C(NNC(=O)c1ccc(Cl)cc1Cl)Nc1ccccc1` gave KCNQ2 enhance 0.39 and KCNQ2 enhance baseline 1.6.
`CCCCCC(=O)Nc1ccc2oc(-c3cccnc3)nc2c1` gave KCNQ2 enhance 0.68 and KCNQ2 enhance baseline 0.
For CN(Cc1ccon1)Cc1cn(C)nc1-c1cccc(Cl)c1 the results were KCNQ2 enhance 1.6 and KCNQ2 enhance baseline 0.36.
Screening Cc1nc2ccccc2n1Cc1ccc(Br)cc1 returned KCNQ2 enhance 0.55 and KCNQ2 enhance baseline -0.62.
Screening CCOc1ccccc1NC(=O)CN1C(=O)C(C)SC(C)C1=O (centres undefined) returned KCNQ2 enhance 0.74 and KCNQ2 enhance baseline 0.28.
COCCCn1c(=N)c(C(=O)NCC2CCCO2)cc2c(=O)n3ccccc3nc21 (centres undefined) was read as KCNQ2 enhance 0.07 and KCNQ2 enhance baseline -0.01.
CCN(CC)C(=S)Nc1ccc2nc3n(c(=O)c2c1)CCCCC3 was read as KCNQ2 enhance 0.35 and KCNQ2 enhance baseline 0.01.
Screening CC(C)Oc1ccc(C2CC(=O)NC3=C2C(=O)CCC3)cc1 (centres undefined) returned KCNQ2 enhance 0.24 and KCNQ2 enhance baseline 0.6.
`CCCCOc1nc2ccccc2nc1C(C#N)C(=O)NC1CCCCC1` (centres undefined) gave KCNQ2 enhance 0.01 and KCNQ2 enhance baseline -0.81.
For Cc1ccc(S(=O)(=O)NCCC(=O)Nc2ccc3c(c2)OCO3)cc1 the results were KCNQ2 enhance 1.6 and KCNQ2 enhance baseline 0.32.
Cc1ccc(S(=O)(=O)NCC(=O)N(CC(=O)NCC2CCCO2)Cc2ccc(Cl)cc2)cc1 (centres undefined) was read as KCNQ2 enhance 1.8 and KCNQ2 enhance baseline -0.59.
`Cc1noc(C)c1C(=O)OCC(=O)Nc1ccc(C(N)=O)cc1` gave KCNQ2 enhance 0.12 and KCNQ2 enhance baseline -2.3.
CCCCCNc1nc(N2CCCC2)c2c(c1C#N)CCN(C)C2 was read as KCNQ2 enhance 3.5 and KCNQ2 enhance baseline -0.81.
For Cc1noc(NS(=O)(=O)c2ccc(NC(=O)CC34CC5CC(CC(Br)(C5)C3)C4)cc2)c1C the results were KCNQ2 enhance 0.41 and KCNQ2 enhance baseline 0.69.
CCOC(=O)C1(Cc2ccccc2C)CCCN(S(=O)(=O)c2cccnc2)C1 (centres undefined) was read as KCNQ2 enhance 0.1 and KCNQ2 enhance baseline 0.5.
For CCCOc1ccc(C(C)=O)cc1CN1CCOCC1 the results were KCNQ2 enhance 0.56 and KCNQ2 enhance baseline 0.05.
For CCOCCCNC(=O)N[C@@H](Cc1ccccc1)C(=O)OC the results were KCNQ2 enhance 0.72 and KCNQ2 enhance baseline -0.2.
COc1ccc(/C=N/NC(=O)c2sccc2C)c2ccccc12 was read as KCNQ2 enhance 0.09 and KCNQ2 enhance baseline 0.21.
Cc1cc(C)nc(/N=C(\N)Nc2ccc(CC(=O)OC(C)C)cc2)n1 was read as KCNQ2 enhance 2.4 and KCNQ2 enhance baseline 2.4.
For Cc1ccc(S(=O)(=O)N2CCOCC2)cc1NC(=O)c1cccc(S(=O)(=O)N2CCCC2)c1 the results were KCNQ2 enhance 1.1 and KCNQ2 enhance baseline 0.8.
Screening CCC1(C)Cc2ccccc2-c2nc(-c3ccccc3)oc(=O)c21 (centres undefined) returned KCNQ2 enhance -5.5.
`O=[N+]([O-])c1ccc(S(=O)(=O)NCCc2cn3ccccc3n2)cc1` gave KCNQ2 enhance 0.04 and KCNQ2 enhance baseline -1.1.
`CCN(CC)S(=O)(=O)c1cccc2cc(C(=O)O)c(O)cc12` gave KCNQ2 enhance 0.4 and KCNQ2 enhance baseline 0.35.
For O=C(Nc1ccccn1)Nc1cccs1 the results were KCNQ2 enhance 0.9 and KCNQ2 enhance baseline -0.03.
For O=C(c1c[nH]c2ccccc12)N1CCN(c2ccccc2)CC1 the results were KCNQ2 enhance 1.1 and KCNQ2 enhance baseline -1.6.
O=C(Oc1ccc([N+](=O)[O-])cc1)c1ccc(Cl)c(S(=O)(=O)N2CCCCC2)c1 was read as KCNQ2 enhance 0.99 and KCNQ2 enhance baseline 1.1.
Cc1cc(C)c(S(=O)(=O)N2CCC(C(=O)NCc3ccc(Cl)cc3Cl)CC2)c(C)c1 was read as KCNQ2 enhance 6* and KCNQ2 enhance baseline 0*.
Screening C/C(=N/NC(=O)c1cccnc1)C1=C(O)CC(C)(C)CC1=O returned KCNQ2 enhance 0.01 and KCNQ2 enhance baseline 0.96.
`COc1cc(CNCc2ccc3c(c2)OCO3)c([N+](=O)[O-])cc1OC` gave KCNQ2 enhance 0.02 and KCNQ2 enhance baseline 1.
For N=C1CCCN1CC(=O)c1ccc(Br)cc1 the results were KCNQ2 enhance 1.4 and KCNQ2 enhance baseline -0.36.
Screening OCCC1CN(Cc2c(F)cccc2Cl)CCN1C1CCCC1 (centres undefined) returned KCNQ2 enhance 0.21 and KCNQ2 enhance baseline 0.36.
`CCOC(=O)c1[nH]c(C)c(C(=O)OCC)c1C` gave KCNQ2 enhance 2.5 and KCNQ2 enhance baseline 0.
`Cc1ccc(-c2csnn2)cc1` gave KCNQ2 enhance 1.3 and KCNQ2 enhance baseline 0.11.
For COC(=O)c1ccc(C(=O)OC)c(NC(=S)N2CCCCC2C)c1 (centres undefined) the results were KCNQ2 enhance 2 and KCNQ2 enhance baseline -0.74.
`CC(=O)Nc1ccc(NC2=C/C(=N/S(=O)(=O)c3cccs3)c3ccccc3C2=O)cc1` gave KCNQ2 enhance 2.1 and KCNQ2 enhance baseline 0.04.
